Screens from PubChem.
Beta cell apopt: inhibitors of cytokine-induced beta cell apoptosis, primary screen, luminescence; INS-1E cytokine-induced death, ATP luminescence, 48 h; percent of positive-control rescue, neutral wells zero; protection from apoptosis, % (concentration not given with the values); actives 0.8% (n = 300,000); AID 435005, 2010;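 active = all replicates at 75% or more, or half of them and the mean; inconclusive = half reach 75% but not the mean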;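 note: 0% = cytokine-treated negative control wells and 100% = positive control rescue; higher means more ATP so stronger rescue from cytokine killing; wells of about 40 µL received 100 nL stock; the first replicate is given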
Bfl-1 A1 inh: caspase 3/7 activation in MEF A1-2A-BIM cells, primary screen, A1 inhibitor project, cell-based, luminescence, HTS; AID 2462, 2010; actives 0.066% (n = 330,000); caspase activation, % (test concentration not listed); Caspase-Glo 3/7 luminescence, 3 h; percent of clofoctol response, vehicle zero;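 active = over half of replicate activation scores above 10%, or exactly half above 10 with the replicate mean above 10; inconclusive = replicate mean below 10 yet half the replicates above 10; inactive = over half of replicates below 10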;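 note: wells of about 30 µL received 50 nL stock; many hits fall short of the cut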
Calb FLC: C. albicans growth inhibition with fluconazole, primary screen, CaCi-2 strain, Alamar Blue fluorescence; C. albicans CaCi-2 (fluconazole-resistant clinical isolate) + fluconazole, 48 h; actives 0.57% (n = 300,000); growth inhibition, % (test concentration not listed);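 active = most replicates above 75%; inconclusive = exactly half above 75%; inactive = most below 75%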;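 note: all wells also contain fluconazole at 8 µg/ml as a sub-toxic cotreatment; 0% = median of DMSO wells and 100% = median of geldanamycin control wells; wells of about 8 µL received 7.5 nL stock; the first replicate is given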
T cruzi repl: inhibitors of intracellular T. cruzi growth, primary screen, luminescence, NIH3T3 host cells | T. cruzi beta-gal in NIH3T3, 90 h | inhibition, % (test concentration not listed) | actives 1.4% (n = 300,000) | AID 1885, 2009;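 active = mean inhibition across valid replicates above about 55%, limit read from the data; inconclusive = mean below that limit but half or more replicates reach it; inactive = mean below it, under half of replicates reach it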;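 note: signal also drops with host cell toxicity which is not excluded here; 0% = plate median of DMSO wells and 100% = zero luminescence signal; higher percent means less beta-gal luminescence so fewer parasites; stock transfer was 50 nL into about 50 µL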
Beta2AR agonist: beta2AR agonists driving receptor internalization, primary screen, cell-based, FAP fluorogen, flow cytometry; AID 504454, 2011; actives 0.43% (n = 340,000); response, % (concentration not given with the values); Am2.2-beta2AR cells; reference of the scale not given here;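 active = response above a set limit, near 3 SD of response in nonfluorescent compounds, cut at about 42% in these data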;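 note: stock transfer was 100 nL into about 11 µL; a reference agonist was the positive control; negative values mostly stem from fluorescent compounds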
Target sequence (P07550 whole entry, looked up): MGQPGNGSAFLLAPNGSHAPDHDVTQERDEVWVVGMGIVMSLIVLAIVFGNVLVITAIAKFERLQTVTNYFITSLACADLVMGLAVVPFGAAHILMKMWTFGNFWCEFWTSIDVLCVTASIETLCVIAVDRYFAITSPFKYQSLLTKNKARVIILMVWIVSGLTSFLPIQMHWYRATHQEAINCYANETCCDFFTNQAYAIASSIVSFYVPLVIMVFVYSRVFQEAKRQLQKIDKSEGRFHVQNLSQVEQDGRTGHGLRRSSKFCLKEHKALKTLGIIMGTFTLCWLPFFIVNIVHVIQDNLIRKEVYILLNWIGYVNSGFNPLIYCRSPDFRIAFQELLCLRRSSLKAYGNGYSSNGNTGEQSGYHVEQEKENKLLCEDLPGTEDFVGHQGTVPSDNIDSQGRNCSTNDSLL
UCH37 inh: inhibitors of human UCH37 deubiquitinase, primary screen, biochemical, Ub-AMC cleavage, fluorescence | purified proteasome/UCH37 | Ubiquitin carboxyl-terminal hydrolase isozyme L5 (Homo sapiens), Q9Y5K5 | inhibition, % (test concentration not listed) | AID 588478, 2011 | actives 0.33% (n = 330,000);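 active = mean of two replicates above 20%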;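 note: 0% = compound-free wells with enzyme and 100% = wells lacking proteasome; stock transfer was 100 nL into about 20 µL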
Target sequence (Q9Y5K5 whole entry, looked up): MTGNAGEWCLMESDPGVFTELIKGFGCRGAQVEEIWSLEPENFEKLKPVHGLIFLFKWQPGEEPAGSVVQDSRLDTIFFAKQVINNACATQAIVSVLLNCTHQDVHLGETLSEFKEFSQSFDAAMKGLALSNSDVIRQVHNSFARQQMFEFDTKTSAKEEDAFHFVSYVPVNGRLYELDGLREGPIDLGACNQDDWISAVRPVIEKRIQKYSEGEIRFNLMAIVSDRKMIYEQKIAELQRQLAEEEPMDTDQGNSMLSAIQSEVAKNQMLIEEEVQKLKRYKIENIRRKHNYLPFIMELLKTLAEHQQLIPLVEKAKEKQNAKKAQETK
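Schedule: 30 min plus 25 min, room temperature / Material: human UCH37 within purified proteasomes / Technique: AMC fluorescence intensity at 355/460 nm / Buffer or medium: pH 7.4 Tris-HCl (50 mM) with ovalbumin, ATP-MgCl2, DTT / Controls: wells without proteasome as full block, compound-free enzyme plus substrate as uninhibited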
RanGTP-Impb inh: inhibitors of RanGTP-importin-beta interaction, primary screen, biochemical, FRET, CFP-Ran, YFP-importin-beta, homogeneous. cell-free CFP-Ran/YFP-importin-beta FRET ratio. inhibition, % (test concentration not listed). actives 1.1% (n = 300,000). AID 2216, 2009;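 active = most replicates above 15%; inconclusive = exactly half above 15%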;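 note: 0% = DMSO wells and 100% = Ran loaded with GDP instead of GTP; wells of about 40 µL received 100 nL stock; the first replicate is given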
LANA-H2B inh: blockers of LANA interaction with H2A/H2B – biochemical, FP readout, HTS, primary screen | cell-free LANA-H2A/H2B peptide, fluorescence polarization | inhibition, % (test concentration not listed) | actives 0.6% (n = 320,000); in the data active = inhibition mostly above about 10%, no sharp cut-off; inactive = mostly below about 6.7%;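 note: stock transfer was 7.5 nL into about 10 µL; 0% = median of vehicle wells and 100% = median of positive control wells; one replicate is shown; the record names a cut of 25% in any replicate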
The depositor's hits bear a star; ? = inconclusive; · = no result given.

Compound,UCH37 inh,Bfl-1 A1 inh,T cruzi repl,RanGTP-Impb inh,Beta cell apopt,Calb FLC,LANA-H2B inh,Beta2AR agonist
COc1cc(SC)ccc1C(=O)NCCOc1ccc(Cl)cc1,2.1,0.2,15,2.9,-5,18,12,-13
Cn1c(-c2ccccc2O)cc2ccccc21,2.8,1.5,·,-2.3,-4,6,1.2,-5
Cc1ccccc1-c1ccc(CN2CCN(C)C(CCO)C2)cc1 (stereo not given),3.3,0.5,58*,-0.8,5,-11,-1.6,-2
CCS(=O)(=O)NCCCCc1ccccc1,-0.5,-0.3,3,?,-6,-14,2.1,0
Cc1ccc2[nH]c(=O)c(CN(Cc3ccc4c(c3)OCO4)Cc3nnnn3C3CCCC3)cc2c1,-2.4,1.4,36,0.6,2,21,3.9,2
O=C(CCc1ccccc1)NNC(=O)Cc1ccccc1,2.9,-0.6,-4,-0.7,0,-20,0.8,1
O=C(O)c1ccc(COc2ccccc2/C=C2\NC(=O)N(Cc3ccccc3)C2=O)cc1,-5.1,1.1,7,3.1,0,-5,-5.1,-1
COC(=O)Nc1nnc(-c2ccco2)s1,-16,0.1,-2,-1.9,-3,1,-4.5,-11
CN(CC(=O)Nc1ccccc1Cl)C(=O)C1CCN(S(=O)(=O)c2ccc3c(c2)OCCO3)CC1,-2.3,0.5,8,·,2,-2,-2.3,-7
Cc1ccc(/C=N/NC(=O)CN2C(=O)CSc3ccccc32)o1,·,-0.7,-3,2.4,-2,10,2.1,-4
Cn1c(=O)c(=O)n(C)c2cc(S(=O)(=O)CCC(=O)Nc3ccc(F)cc3)ccc21,4.7,0.3,-6,-0.1,-7,-4,-2.6,4
COc1cc(C(=O)Nc2cccc(S(=O)(=O)NCc3ccco3)c2)cc(OC)c1OC,2.2,-1.0,·,·,1,·,-2.3,15
Cc1ccc(C(=O)N/C(=C\c2cn(C)c3ccccc23)C(=O)NCCCn2ccnc2)cc1,7.9,-0.1,-7,-1.2,4,19,-2.3,-7
O=S(=O)(NCCN1CCN(S(=O)(=O)c2ccccc2F)CC1)c1ccccc1F,4.3,0.5,·,·,-6,·,-0.8,0
COc1cc(CNc2ccc3[nH]c(=O)[nH]c3c2)ccc1OCc1c(F)cccc1Cl,0.2,-0.2,-15,3.8,-12,-2,0.9,8
CSc1ccc(S(=O)(=O)Nc2ccc(N3CCOCC3)c(Cl)c2)cc1,2.3,-0.6,-30,9.1,104*,0,0.4,-8
CCC(=O)N1CCCc2ccccc21,-0.2,-0.1,-6,3.0,-6,1,-0.9,0
O=C(NC1CCS(=O)(=O)C1)Oc1ccc(Cl)cc1 (stereo not given),4.0,-0.4,-8,-0.9,-8,-5,-0.9,-5
Cc1cccnc1NC(=O)COc1ccc2oc3c(c2c1)CCCC3,-0.1,1.7,-11,-0.3,-3,3,-1.5,-18
c1ccc(-c2nnc(CSc3nnc(-c4cccs4)o3)o2)cc1,-0.5,-0.4,6,0.6,-8,-21,1.7,1

Entries of single compounds from above.
Entry for Cc1ccccc1-c1ccc(CN2CCN(C)C(CCO)C2)cc1 (stereo not given) = UCH37 inh = 3.3; Bfl-1 A1 inh = 0.5; T cruzi repl = 58*; RanGTP-Impb inh = -0.8; Beta cell apopt = 5; Calb FLC = -11; LANA-H2B inh = -1.6; Beta2AR agonist = -2
Entry for COc1cc(C(=O)Nc2cccc(S(=O)(=O)NCc3ccco3)c2)cc(OC)c1OC = UCH37 inh = 2.2; Bfl-1 A1 inh = -1.0; T cruzi repl = ·; RanGTP-Impb inh = ·; Beta cell apopt = 1; Calb FLC = ·; LANA-H2B inh = -2.3; Beta2AR agonist = 15

Going on with the list.
Compound,UCH37 inh,Bfl-1 A1 inh,T cruzi repl,RanGTP-Impb inh,Beta cell apopt,Calb FLC,LANA-H2B inh,Beta2AR agonist
COc1ccc(C(=O)OC(C)C(=O)NC(C)CCc2ccccc2)c(OC)c1 (stereo not given),2.2,0.1,16,3.5,-2,24,1.1,14
O=C(c1ccc2ccccc2c1)N1CCCCC1,2.1,0.4,1,-0.5,0,9,3.6,0
CCC(CO)NC1=C([N+](=O)[O-])C(=O)CC(C)(C)C1 (stereo not given),11,0.7,-12,2.1,-1,?,-6.4,-5
O=C(NCc1cccnc1)c1ccc(CS(=O)(=O)Cc2ccc(Cl)cc2)o1,3.1,0.2,-5,1.4,-2,0,-2.3,-2
COc1ccc(NC(=O)c2cc(S(=O)(=O)N(C)C)ccc2N2CCCC2)cc1Cl,4.5,0.4,18,-0.6,-3,8,-7.4,6
O=C(O)COCC(=O)NCc1csc2ccc(Cl)cc12,5.0,-0.1,-6,-0.2,-5,-2,-2.7,-5
O=C1Nc2ccccc2N(O)N1c1ccc(Cl)c(Cl)c1,-1.9,-2.0,-11,-1.4,-2,18,4.0,1
CCOc1ncccc1C(=O)Nc1ccc2c(C)cc(=O)oc2c1,-22,-1.6,2,-2.0,-2,11,6.9,22
Cc1cc(C(=O)Nn2c(C3CCCCC3)nc3ccccc3c2=O)ccc1[N+](=O)[O-],-0.9,0.7,26,-0.4,1,3,3.5,4
Cc1noc(C)c1S(=O)(=O)N1CCCC1C(=O)NC(C)(C)C (stereo not given),3.9,-0.3,-7,0.4,-2,4,4.7,2
O=C1Cc2ccccc2C(=O)N1c1cccc(Cl)c1,3.3,-1.3,-18,?,·,-13,-0.7,7
O=C(N/N=C/c1c(O)ccc2ccccc12)Nc1ccccc1,·,-1.1,2,-36,3,-3,1.4,3
Cc1ccc(Cn2ccc(NC(=O)c3nc4ncccn4n3)n2)cc1,0.9,0.1,0,-4.8,-3,2,4.5,-9
Cc1cc(C(=O)COC(=O)c2ccc(O)cc2)c(C)n1CC1CCCO1 (stereo not given),0.4,-6.2,2,3.2,-3,-3,-2.4,-3
O=C(O)COc1cccc2ccccc12,1.6,0.0,6,-1.0,-3,8,-4.1,5
O=C(COc1ccccc1[N+](=O)[O-])Nc1ccc(NC(=O)c2cc3ccccc3o2)cc1,8.9,7.5*,18,7.1,-2,-3,-0.5,12
O=S(=O)(Nc1ncccn1)c1ccc(NC(=S)Nc2ccc(Cl)cc2)cc1,·,-0.3,2,2.1,-5,-2,0.1,-4
O=C(c1nc2ccc(Cl)cn2c1CNCCc1cnccn1)N1CCCCCCC1,4.5,0.4,2,-2.1,-3,-10,-2.2,-4
COc1ccc(OC)c(/C=C/C(=O)OCC(=O)N2C(C)CCCC2C)c1 (stereo not given),-80,0.4,·,·,-4,·,1.9,-1
COC(=O)Cn1cc(/C=C/c2cc[n+](C)cc2)c2ccccc21,·,-0.6,-4,-167,-5,5,-54,-19
Cc1c(O)ccc(/C=N/Nc2ncccc2[N+](=O)[O-])c1O,·,-7.1,46,4.6,6,-2,-0.1,-2
Cc1cc(C)c(C2C(C#N)=C(N)Oc3n[nH]c(C)c32)cc1CN1CCCC1 (stereo not given),3.9,-0.1,43,0.5,-3,-21,-1.5,6
Cc1nn(-c2ccccc2)c(C)c1C1C(C#N)=C(N)Oc2n[nH]c(C)c21 (stereo not given),2.3,0.4,-1,5.4,-6,1,1.6,-9
CC(=O)c1ccc(NC(=O)CNCC(c2ccccc2)N(C)C)cc1 (stereo not given),3.5,1.7,-3,-0.8,-4,7,-3.8,2
CC(=O)Nc1ccc(SCC(=O)NCCc2ccc(F)cc2)cc1,8.3,0.3,5,0.5,-6,-18,-0.7,-5
Cc1nc2cc(NCc3ccccc3O)ccc2n1Cc1ccccc1,-5.6,-0.9,1,?,0,8,4.8,0
CCOc1ccc(N(C)S(=O)(=O)c2ccc3[nH]cc(C(=O)NCC4CCCO4)c(=O)c3c2)cc1 (stereo not given),0.5,-2.6,13,2.1,-4,-3,-2.8,9
CCc1ccccc1NC(=O)CCN1C(=O)C2C3CCC(C3)C2C1=O (stereo not given),-0.9,0.2,-10,0.6,-3,-16,2.1,1
O=C(Cn1c(NCCCCl)nc2ccccc21)c1ccccc1,1.5,1.5,·,·,0,·,0.4,-12
Cc1c(NC(=O)CN2CCN(C(c3ccccc3)c3ccccc3)CC2)c(=O)n(-c2ccccc2)n1C,-2.5,0.2,-5,1.6,-7,4,-0.6,0

Gathered by group, those above containing an aryl methoxy group.
Compound,UCH37 inh,Bfl-1 A1 inh,T cruzi repl,RanGTP-Impb inh,Beta cell apopt,Calb FLC,LANA-H2B inh,Beta2AR agonist
COc1cc(SC)ccc1C(=O)NCCOc1ccc(Cl)cc1,2.1,0.2,15,2.9,-5,18,12,-13
COc1cc(C(=O)Nc2cccc(S(=O)(=O)NCc3ccco3)c2)cc(OC)c1OC,2.2,-1.0,·,·,1,·,-2.3,15
COc1cc(CNc2ccc3[nH]c(=O)[nH]c3c2)ccc1OCc1c(F)cccc1Cl,0.2,-0.2,-15,3.8,-12,-2,0.9,8
COc1ccc(C(=O)OC(C)C(=O)NC(C)CCc2ccccc2)c(OC)c1 (stereo not given),2.2,0.1,16,3.5,-2,24,1.1,14
COc1ccc(NC(=O)c2cc(S(=O)(=O)N(C)C)ccc2N2CCCC2)cc1Cl,4.5,0.4,18,-0.6,-3,8,-7.4,6
COc1ccc(OC)c(/C=C/C(=O)OCC(=O)N2C(C)CCCC2C)c1 (stereo not given),-80,0.4,·,·,-4,·,1.9,-1
